High-throughput results from PubChem.
TRPML1 blocker: inhibitors of human TRPML1 channel; Q9GZU1; TRPML1-inducible cells, Ca2+ dye fluorescence, FDSS; hits give low values; inhibition of EC80 agonist-evoked calcium signal; activity change, negative = inhibition, % (test concentration not listed); 0.02% of 390,000 active; AID 624415; in the data active means activity change below about -50%; inconclusive means about -30% to -50%; inactive means above about -30%;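 also: stimulus is agonist 54-4 at its EC80 concentration; % is scaled to controls: 0 for no effect and ±100 for the full control effect; compound concentration not given in the record; the text of the record puts the active cut at -80%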
Target sequence (Q9GZU1 whole entry, looked up): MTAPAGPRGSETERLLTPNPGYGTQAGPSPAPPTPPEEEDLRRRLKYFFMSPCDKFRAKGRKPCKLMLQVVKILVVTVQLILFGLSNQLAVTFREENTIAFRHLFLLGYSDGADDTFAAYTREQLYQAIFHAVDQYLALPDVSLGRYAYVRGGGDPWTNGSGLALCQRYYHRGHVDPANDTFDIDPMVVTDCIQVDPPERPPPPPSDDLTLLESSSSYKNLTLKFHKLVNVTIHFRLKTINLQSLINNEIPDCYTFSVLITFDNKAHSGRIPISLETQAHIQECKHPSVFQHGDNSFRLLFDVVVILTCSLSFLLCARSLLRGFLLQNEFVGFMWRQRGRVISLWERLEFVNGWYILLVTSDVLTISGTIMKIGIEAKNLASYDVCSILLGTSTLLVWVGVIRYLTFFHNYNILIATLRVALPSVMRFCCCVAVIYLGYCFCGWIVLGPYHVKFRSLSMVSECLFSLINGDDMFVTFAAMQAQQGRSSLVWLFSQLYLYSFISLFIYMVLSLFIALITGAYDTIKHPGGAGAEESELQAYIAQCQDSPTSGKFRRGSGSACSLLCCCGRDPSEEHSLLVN
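Calcium fluorescence in TRPML1-DL cells induced overnight with Tet: a 110 s read after compound pin addition, then a 110 s antagonist read after challenge with 54-4 at 4 uM final (EC80).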
CtBP-E1A blk: blocks the CtBP interaction with E1A; AlphaScreen GST-E1A/His-CtBP binding, 1536-well; hits give low values; control for the full effect not named in the record; activity change, % (concentration not given with the values); 0.49% of 340,000 active; in the data active means activity change below about -65%; inconclusive means about -30% to -65%; inactive means above about -30%; also: % is scaled to controls: 0 for no effect and ±100 for the full control effect
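AlphaScreen with 125 nM GST-E1A and 125 nM His-CtBP (5X stocks) in Tris pH 8.0, 300 mM NaCl, BSA, Tween 20, TCEP. Compounds preincubated 2 h at 37 deg C, then glutathione donor/nickel acceptor beads added for 1 h at 37 deg C in dark.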
PINK1 expr mod: PINK1 expression modulation; Potency, µM (doses to about 76.6 µM), for the others: top-dose activation (PINK1 increase), actives largely listed as activators; 0.2% of 410,000 active; PINK1 immunofluorescence, high-content cytometry, 24 h; AID 624263; active = well fitted activation curve with a large enough effect; inconclusive = small, poorly fitted or top-dose-only effect; inactive = flat fitted curve, though single readings scatter; cell line not stated here;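 also: potency is read from the fitted curve at half-maximal effect; % of control where 0% means no effect; nearly all actives have a fitted effect of over 65% in size; a mitochondrial uncoupler was the plate control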
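Decision-based qHTS: stable cells, 24 h exposure to five compound concentrations, CCCP as control. Fixed cells stained for PINK1 plus nuclear, mitochondrial and cell markers, cytometer read.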
D2 agonist: activates the human D2 dopamine receptor. P14416. AID 624465. DiscoveRx PathHunter D2 beta-arrestin, luminescence, 90 min; 100% = 57 uM dopamine signal. activation, % (no concentration beside the values). 0.084% of 360,000 active; in the data active = activation above about 40%; inconclusive = about 15% to 40%; inactive = below about 15%; also: compound concentration not given in the record; the text of the record calls up to 30% inactive
Target sequence (P14416 whole entry, looked up): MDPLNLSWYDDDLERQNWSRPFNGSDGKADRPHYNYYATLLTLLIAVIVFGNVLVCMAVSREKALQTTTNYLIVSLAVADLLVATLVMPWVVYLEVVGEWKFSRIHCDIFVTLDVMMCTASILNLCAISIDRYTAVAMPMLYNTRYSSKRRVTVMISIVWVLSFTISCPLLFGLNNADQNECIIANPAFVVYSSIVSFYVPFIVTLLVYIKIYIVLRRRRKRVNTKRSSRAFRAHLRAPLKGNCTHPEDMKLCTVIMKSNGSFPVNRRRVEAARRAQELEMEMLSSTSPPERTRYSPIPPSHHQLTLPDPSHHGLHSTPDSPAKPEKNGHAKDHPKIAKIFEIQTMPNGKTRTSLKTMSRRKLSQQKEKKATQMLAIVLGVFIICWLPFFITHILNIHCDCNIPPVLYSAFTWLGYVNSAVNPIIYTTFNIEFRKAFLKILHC
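DiscoveRx PathHunter D2 beta-arrestin cells (2,100/well) attached overnight, then compound-stimulated 90 min at 37 C in HBSS/10 mM HEPES/0.1% Tween-20 buffer; beta-galactosidase complementation read by luminescence after 1 h at ambient temperature. Dopamine 57 uM final (EC100) as control.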
Six1-Eya2 blk: blocks human Six1 binding to Eya2; Q15475+O00167; AlphaScreen GST-Six1/His-Eya2 binding, biochemical; hits give low values; control for the full effect not named in the record; activity change, % (test concentration not listed); 0.56% of 360,000 active; AID 651725; in the data active = activity change below about -65%; inconclusive = about -30% to -65%; inactive = above about -30%; also: % is scaled to controls: 0 for no effect and ±100 for the full control effect; compound concentration not given in the record
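GST-Six1 + His-Eya2 (5X stock: 250/500 nM); Tris pH 8.0, 300 mM NaCl, 0.05% BSA, 0.02% Tween 20; GSH donor/Ni acceptor beads; 1 h 37 °C dark; AlphaScreen readout.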
TRPML1 ag: activates the human TRPML1 channel; Q9GZU1; TRPML1-expressing cells, Ca2+ dye fluorescence, FDSS; host cell line not named in the record; reference of the full effect not given here; activation, % (concentration not given with the values); 0.12% of 410,000 active; in the data active = activation above about 50%; inconclusive = about 30% to 50%; inactive = below about 30%; also: 0% is about no effect; the text of the record puts the active cut at 80%
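Kinetic FDSS Ca2+ read in Tet-induced TRPML1-DL cells (ABD Ca8 dye plus quencher, 45-90 min RT loading): baseline, then compound, then 110 s agonist window; EC80 agonist 54-4 at 4uM final added afterwards for a 110 s antagonist window.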
Starred values were filed as active, the others as inactive; u = inconclusive; x = no result given; [ ] = dose if it differs, or a comment. Hits appear at their usual frequency (roughly 1% active in at least one column).

Sample of the layout (three entries):
SMILES	TRPML1 blocker	CtBP-E1A blk	PINK1 expr mod	D2 agonist	Six1-Eya2 blk	TRPML1 ag
C[C@@]12C(=O)Nc3ccc(Cl)cc3C(=O)N1[C@H]1c3cc(Cl)ccc3OC[C@@H]1[C@@H]2c1ccccc1	9	-15	2.2%	-5.0	2	0.9
CCCNC(=O)C1(C)CCCN(C(=O)c2ccc(OC)cc2OC)C1 (stereo not given)	x	8	-0.8%	7.4	-6	-0.4
Cc1ccc(CN2CCN(CC(=O)NCCCN3CCN(c4ccc(F)cc4)CC3)C2=O)cc1	7	-4	-0.9%[38.3 µM]	0.5	-5	0.5

The whole of this part, from the start:
SMILES	TRPML1 blocker	CtBP-E1A blk	PINK1 expr mod	D2 agonist	Six1-Eya2 blk	TRPML1 ag
C[C@@]12C(=O)Nc3ccc(Cl)cc3C(=O)N1[C@H]1c3cc(Cl)ccc3OC[C@@H]1[C@@H]2c1ccccc1	9	-15	2.2%	-5.0	2	0.9
CCCNC(=O)C1(C)CCCN(C(=O)c2ccc(OC)cc2OC)C1 (stereo not given)	x	8	-0.8%	7.4	-6	-0.4
Cc1ccc(CN2CCN(CC(=O)NCCCN3CCN(c4ccc(F)cc4)CC3)C2=O)cc1	7	-4	-0.9%[38.3 µM]	0.5	-5	0.5
COc1ccc(CCC(=O)Nc2ccc(N3CCOCC3)c(S(=O)(=O)Nc3ccc(OC)cc3)c2)cc1	-7	x	5.3%	-2.8	12	-0.2
COc1ccc(CNC(=O)c2ccc(S(=O)(=O)N3CC(C)CC(C)C3)cc2)cc1OC (stereo not given)	10	6	0.9%	-1.8	-8	2.1
CCc1ccc2oc(C(=O)NCCc3ccc(S(N)(=O)=O)cc3)cc(=O)c2c1	-5	4	7.8%	1.0	4	-0.5
COc1ccc(NC(=O)Nc2cccc3c2O[C@@H](CN(C)CC2CCCCC2)[C@@H](C)CN([C@H](C)CO)C3=O)cc1	39	2	0.2%	-5.6	-2	-0.4
Cc1ccc(C(=O)Nc2c(C(=O)N3CCOCC3)cnn2-c2ccccc2)cc1	32	14	-0.1%	-2.9	-4	-0.5
CC1CCCCC1NC(=O)CSc1ncnc2sccc12 (stereo not given)	5	-1	0.8%	-3.5	-1	-0.8
Cc1csc(OCC(=O)Nc2ccc(C)c(C)c2)n1	17	6	2.9%	-4.7	1	0.7
N#CC(C(=O)OCc1ccccc1)c1nc2ccccc2nc1N1CCOCC1 (stereo not given)	9	-11	-2.2%	-7.8	-2	17
Cc1cccc(C)c1N(CC(=O)Nc1cc(Cl)ccc1Oc1ccccc1)S(C)(=O)=O	-14	4	-0.6%	-9.0	-7	-0.3
COC(Cn1cc(C)c(=O)[nH]c1=O)OC	-10	4	0.3%	-0.4	-2	-0.4
NC(=O)N1c2ccccc2CC(=O)c2ccccc21	-5	8	-0.2%	-5.9	-1	4.5
C#CCOc1c(Br)cc(/C=N\NC(=O)CN2CCOCC2)cc1OCC	7	-7	-1.8%	-0.3	-10	-1.5
COc1ccc(NC(=O)c2ccco2)cc1NC(=O)c1cccc(OC(C)C)c1	18	-4	-1.1%	-3.6	-6	1.7
CC1CN(C(=O)CCC(=O)NCc2ccc(F)cc2)c2cc(Cl)ccc2O1 (stereo not given)	3	x	0.9%	x	x	0.3
CC(=O)c1ccc(NC(=O)NCCc2c[nH]c3ccccc23)cc1	34	x	-0.8%	x	x	-0.5
O=C(COC(=O)CSc1ccc(Br)cc1)NCc1ccco1	-6	1	1.1%	-0.5	-7	2.4
Cc1ccc(-c2nc(NCC3CCCO3)sc2C)cc1 (stereo not given)	-4	-1	6.1%	-3.3	-8	0.8
COc1cccc(N2CN(C3CCCCC3)CNC2=S)c1	-6	8	0.0%	-0.6	-1	0.0
CC(C)NC(=O)C1CC(=O)N(CCc2ccc(F)cc2)C1 (stereo not given)	-9	3	1.6%	-2.4	-5	-0.4
Cc1cc(C(=O)OCC(N)=O)c(C)n1-c1ccccc1	2	-5	0.0%	-0.4	-12	-0.8
O=C(Nc1ccc(N2CCN(C(=O)c3cccs3)CC2)cc1)c1cccc(F)c1	18	-18	0.1%	-0.6	-9	2.1
Cn1c(N)c(C(=O)COC(=O)c2cc(S(=O)(=O)N3CCCCC3)ccc2Cl)c(=O)n(C)c1=O	3	4	-1.5%	-1.9	-29	-0.6
O=C(COC(=O)/C=C/c1ccccc1Cl)NC(=O)Cc1ccccc1	24	-8	0.3%	0.6	2	1.9
CCCOc1cccc(OCCSc2nc(C)cc(=O)[nH]2)c1	44	0	-2.2%[38.3 µM]	-2.1	2	2.4
O=C(CSC1=NCCN1)NC(c1ccccc1)c1ccccc1	10	8	11%	-7.1	-1	-1.4
Cc1nnc2c3ccccc3nc(Nc3ccc(F)cc3Cl)n12	34	x	0.2%	x	x	0.8
CC(=O)c1ccc(OC(=O)COc2ccccc2)cc1	5	6	-0.3%	1.7	0	-0.4
CCN(CC)Cc1cc(C(=O)O)c(-c2ccccc2)o1	27	4	0.3%	-0.4	7	0.6
CCC(Sc1nc2ccccc2[nH]1)C(=O)Nc1cc(C)on1 (stereo not given)	-7	-3	-0.8%	-2.9	-1	-0.3
O=C(Cc1ccc(Cl)cc1)OCc1nnc(-c2ccccc2)o1	21	x	-0.4%	1.8	12	2.3
COc1ccc(NS(=O)(=O)c2ccc(N3CCOCC3)c(NC(=O)c3cccc(F)c3)c2)cc1	11	4	1.9%	3.1	-3	2.1
COc1ccc(CN2CCN(C(=O)CCC(=O)Nc3nnc(CC(C)C)s3)CC2)cc1F	-3	x	1.2%	-3.8	-4	1.1
O=C(COC(=O)c1ccccn1)NCc1cccc(Cl)c1	5	3	-1.9%	-3.5	-8	0.9
COc1ccccc1NC(=O)C(=O)NCC(c1ccc2c(c1)OCO2)N1CCOCC1 (stereo not given)	6	x	1.4%	x	x	0.2
CCOC(=O)C1=C(C)OC(=Cc2ccc(OC)cc2)C1=O	-3	1	-0.2%	-2.3	-8	-0.3
CC(C)(C)c1ccc(C2(C)NC(=O)N(CC(=O)NCc3cccs3)C2=O)cc1 (stereo not given)	3	x	1.0%	-7.0	-1	1.3
CCCc1cc(C(=O)Nc2ccc(F)cc2F)no1	1	9	-0.2%	-3.6	6	0.6
COc1ccc2[nH]cc(CCNC(=O)Nc3c(C)cccc3C)c2c1	-8	x	-0.5%	x	x	1.8
O=C(Cn1c(=O)oc2cc(S(=O)(=O)N3CCCCCC3)ccc21)Nc1cccc(C(F)(F)F)c1	-18	x	3.9%	x	x	0.6
COc1ccc([N+](=O)[O-])cc1NC(=O)C(C)OC(=O)c1cccnc1Cl (stereo not given)	28	-8	-0.2%	-3.0	-6	2.0
COc1ccc(N2CCN(C(CNC(=O)C(=O)NCCc3ccccc3)c3cccnc3)CC2)cc1 (stereo not given)	-9	x	2.4%	x	x	0.5
COc1cccc(CNC(=O)CC(NC(C)=O)c2ccccc2)c1 (stereo not given)	-1	x	-0.2%	1.7	1	2.2
COc1ccc(C(=O)NCCS(=O)(=O)N(C)Cc2ccccc2)cc1	6	12	-1.0%	-3.5	0	-0.6
Cc1ccc(S(=O)(=O)NCC(=O)NCC(=O)NCCc2ccc(Cl)cc2)cc1C	6	-14	0.9%	-1.4	6	0.2
O=C(Nc1ccc2c(c1)OCCO2)c1cc(-c2ccccc2)nc2ccccc12	40	-16	1.4%	0.1	-7	0.9
CN(C(=O)c1cccc(NC(=O)Cc2cccc(NC(=O)C3CCCN(C(=O)C4CC4)C3)c2)c1)C1CCC1 (stereo not given)	1	9	-0.9%	4.6	3	2.9
CCOc1ccc2[nH]c(=S)[nH]c2c1	-12	2	-2.0%	-1.4	-3	1.1
CCCOc1cc(NCc2ccccc2)c2ncn(C(C)C)c2c1	27	-23	6.0%	2.2	u	4.7
Cc1ccc(CNC(=O)Cn2cnc3c(NCc4ccccc4)ncnc32)o1	19	-3	12%	1.5	-6	-0.7
N#Cc1ccccc1NC(=O)c1ccc2c(Cl)c3c(nc2c1)CCCC3	-2	24	-0.7%	2.6	11	-0.3
COc1ccc(CCNCC(=O)Nc2ccc(C)c(Br)c2)cc1OC	6	0	4.9%	-4.4	4	-0.1
CCCCCCCNc1nc(Cl)nc(NCCO)n1	14	3	-0.4%	-4.0	-3	6.8
COCCCNC(=S)N1CCN(c2ccc([N+](=O)[O-])cc2)CC1	3	-5	1.1%	-2.3	-1	-0.3
CCN1CC2CCCC3(C1)C(=O)NC1(CCCCC1)N=C23 (stereo not given)	-4	2	-1.9%	-2.4	0	0.1
C=CCN(C(=O)CNC(=O)c1ccco1)C(C(=O)NC1CCCCC1)c1ccc(F)cc1 (stereo not given)	-1	0	-0.6%	-1.5	3	-0.5
O=C(c1cc(NC(=O)C23CC4CC(CC(C4)C2)C3)cc(NC(=O)C23CC4CC(CC(C4)C2)C3)c1)N1CCCCC1	u	9	-1.5%	-6.0	-7	-0.1
C=CCOc1cccc(CNn2cn[nH]c2=S)c1	-12	9	-0.3%[38.3 µM]	2.9	5	-0.2
Additional compounds:
SMILES	TRPML1 blocker	CtBP-E1A blk	PINK1 expr mod	D2 agonist	Six1-Eya2 blk	TRPML1 ag
Cn1c(=O)c2cc(NC(=O)CCc3ccc(O)cc3)ccc2n1Cc1cccc(C(F)(F)F)c1	x	1	3.7%	7.0	0	-0.5
COC(=O)c1ccc(OCCCCN2CC(C)OC(C)C2)cc1 (stereo not given)	9	-2	-0.9%	13	5	0.1
O=C(Nc1nnc(-c2cccnc2)o1)c1ccccc1Cl	-5	-2	2.1%	-1.4	1	-0.8
COc1ccc(/C(C)=N/N=C(N)N)c(O)c1	60	-13	3.2%	-11	-14	-0.9
C=CCNC(=O)CCCOc1cc(C)ccc1C	-7	17	-0.4%[38.3 µM]	-1.1	1	1.7
FC(F)(F)c1ccc2c(c1)nc1n2CCCC1	0	1	-0.3%	-3.7	-2	-0.2
CC(C)(O)c1nnn(-c2ccccc2)c1C(F)(F)F	15	-1	-1.9%	-2.8	3	3.0
C=CCn1c(=NC(=O)c2cc(-c3cccs3)nc3ccccc23)sc2cc(S(N)(=O)=O)ccc21	8	1	3.3%	-5.5	4	0.5
Cc1cccc(C)c1NC(=O)C1CCCN(S(=O)(=O)c2c(C)noc2/C=C/N(C)C)C1 (stereo not given)	8	x	0.2%	x	x	-0.8
COc1cccc(C(O)c2nc(-c3ccc(F)c(Cl)c3)cs2)c1 (stereo not given)	x	-13	5.8%	2.0	11	-0.4
COc1ccc(NC(=O)c2oc3ccc(S(=O)(=O)N4CCC5(CC4)OCCO5)cc3c2C)cc1	29	-25	9.9%[38.3 µM]	0.1	-27	-0.1
CN1CCN(C(=S)c2cn(Cc3ccc(Br)cc3)c3ccccc23)CC1	64	x	-0.1%	-7.6	-4	1.0

Three structures from above, ordered by number of heavy atoms, lowest first.
SMILES	TRPML1 blocker	CtBP-E1A blk	PINK1 expr mod	D2 agonist	Six1-Eya2 blk	TRPML1 ag
COc1ccc(/C(C)=N/N=C(N)N)c(O)c1	60	-13	3.2%	-11	-14	-0.9
C=CCNC(=O)CCCOc1cc(C)ccc1C	-7	17	-0.4%[38.3 µM]	-1.1	1	1.7
COc1cccc(C(O)c2nc(-c3ccc(F)c(Cl)c3)cs2)c1 (stereo not given)	x	-13	5.8%	2.0	11	-0.4
